High-throughput results: PubChem BioAssay, several laboratories
Hsc70: Hsc70 inhibitors, probe displacement, primary screen, biochemical, fluorescence polarization (AID 568). 83,000 tested, under 10 active. Hsc70 fluorescence polarization, probe displacement; higher % means a stronger effect; strong numbers were not always called active. displacement, % at 20 µM; hits with a dose series show IC50 in µM. Heat shock cognate 71 kDa protein (Homo sapiens);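 active means displacement above 50% without optical interference and an IC50 on retest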;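 further: ATPase domain with a fluorescein-tagged ATP probe; 0% = vehicle and 100% = excess ADP; read after one hour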
WNV NS2B-NS3 inh: inhibitors of WNV NS2B-NS3 protease, primary screen, biochemical, fluorogenic substrate; Genome polyprotein (West Nile virus), P06935; fluorogenic substrate Ex360/Em465; hits give low values; z-score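 (tested at a level between 10 and 100 µM)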; 65,000 tested, 0.18% active;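 active means z-score at -3 or under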;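 further: score is relative to mean and spread of the compound wells of a plate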
Target sequence (P06935 1371-1501 limits assumed): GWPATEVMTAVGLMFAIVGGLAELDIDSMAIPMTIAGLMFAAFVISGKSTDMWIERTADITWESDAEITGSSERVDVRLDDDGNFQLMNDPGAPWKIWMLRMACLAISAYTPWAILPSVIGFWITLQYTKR
Target sequence (P06935 1502-1679 limits assumed): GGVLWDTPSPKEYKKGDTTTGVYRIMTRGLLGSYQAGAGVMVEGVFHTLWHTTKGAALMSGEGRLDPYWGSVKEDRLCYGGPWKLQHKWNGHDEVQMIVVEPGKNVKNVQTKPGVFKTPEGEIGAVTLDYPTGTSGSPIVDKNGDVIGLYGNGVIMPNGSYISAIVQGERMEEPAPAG
MT1-MMP promoter: inhibitors of MT1-MMP promoter transcription, cell-based, luciferase reporter, luminescence (AID 618); MT1-MMP promoter luciferase reporter cells, luminescence; 87,000 tested, 0.62% active; calls from a first round at 10 µM; hits with a dose series show EC50 in µM;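 active means over half of the reporter light lost at 10 µM or EC50 under 50 µM; inactive means the rest and hits that failed the dose series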;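 further: actives suppress MT1-MMP promoter-driven transcription so potencies describe inhibitors; HT1080 fibrosarcoma cells; overnight exposure; toxic or luciferase-blocking compounds were not removed from the actives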
Numbers without * were called inactive; i = inactive; . = not tested or not shown; & = joins results of further samples.

SMILES | Hsc70 | WNV NS2B-NS3 inh | MT1-MMP promoter
CCc1ccc(C2C(C#N)=C(N)C(C#N)(C#N)C3=CCC(C(C)(C)C)CC32)cc1 (stereo not given) | -7.6% | . | i
C=CCSC1=C(C#N)C(c2ccccc2)CC(=O)N1 (stereo not given) | 2.7% | -0.00381 | i
Cc1c(/C(O)=C2\C(=O)C(=O)N(CCCN(C)C)C2c2ccccc2)cnn1-c1ccccc1 (stereo not given) | -1.3% | 0.35 | i
CN(C)S(=O)(=O)c1ccc(S(=O)(=O)N2CCCC2)cc1 | -3.7% | . | i
Cc1c(C(=O)O)cnc2cc(-c3ccc(Cl)cc3)nn12 | -1.9% | -0.72 | i
COc1ccc(CN2C(=O)c3cccnc3C2Nc2ccc(C)cc2)cc1 (stereo not given) | -2.2% | . | i
CSc1nnc(-c2ccco2)n1-c1ccccc1 | -5.2% | 0.03 | i
COc1cc(CNc2ccccc2Oc2cc(=O)n(C)c(=O)n2C)cc(OC)c1OC | -1.2% | . | i
CCCNS(=O)(=O)c1ccc2c(c1)CCCN2C(C)=O | -5.5% | 1.22 | i
CC(C)Sc1nc2c(c(=O)n(C)c(=O)n2C)n1Cc1ccc(Cl)cc1 | -3.1% | -1.26 | i
CCOc1cccc(-c2cc(=O)[nH][nH]2)c1 | -3.6% | 1.95 | i
COc1ccc2[nH]c(=S)[nH]c2c1 | 4.4% | -0.19 | i
COc1cc(C)ccc1NC(=O)c1ccc(S(=O)(=O)N2CCOCC2)cc1 | 0.8% | -0.97 | i
CCOC(=O)C1CCN(C(=O)c2ccc(OC)cc2OC)CC1 | 0.2% | 1.09 | i
C=CCNC(=O)c1cc(=O)c2ccccc2o1 | 1.3% | 0.66 | i
CC(C)c1nnc(NC(=O)c2sc3ccccc3c2Cl)s1 | -0.1% | . | i
CC1(C)OC(C(=O)NC2CCCCC2)C(C(=O)NC2CCCCC2)O1 (stereo not given) | -2.9% | -1.34 | i
CSc1nc2sc3c(c2c(=O)n1C)CCC(C)C3 (stereo not given) | 0.8% | -0.83 | i
O=C(CSc1c2c(nc3ccc(Cl)cc13)CCCC2)N1CCN(C(=O)c2ccco2)CC1 | -6.4% | -0.76 | i
CC(=O)C(C)Oc1ccc2c3c(c(=O)oc2c1C)CCCC3 (stereo not given) | -4.9% | -0.82 | i
COC(=O)c1[nH]c(C)c(/C(O)=C2\C(=O)C(=O)N(CCN3CCOCC3)C2c2cccs2)c1C (stereo not given) | -1.3% | 0.2 | i
N#CC1=C(O)CCCn2c1nc1ccccc1c2=O | 6.6% | -0.91 | i
Clc1ccccc1OCCCCN1CCCC1 | 9.6% | -0.22 | i
CCOC(=O)Cn1nc(CC)c2ccccc2c1=O | 5.4% | . | i
CCOc1ccc(C2CC(c3cccc(OC)c3)n3nc(N)nc3N2)cc1 (stereo not given) | 2.0% | -0.08 | i
CCOC(=O)CSc1nc(N)c2c3c(sc2n1)CCCC3 | -0.4% | -0.18 | i
CCCCn1c(N)c(Sc2ccc(C)cc2)c(=O)[nH]c1=O | -1.0% | -0.63 | i
O=C(Nc1ccc2oc(-c3cccnc3)nc2c1)c1ccc(Br)o1 | -34.1% | . | i
CC(C)NC(=O)CSCc1ccccc1Cl | 5.1% | -0.14 | i
CCN(CCCNC(=O)c1[nH]c(C)c(C(C)=O)c1C)c1ccccc1 | -3.8% | 0.52 | i
NC(Cc1ccc2nonc2c1)C(=O)O (stereo not given) | -4.8% | 0.51 | i
CCOC(=O)C1CCN(Cc2ccccc2C)CC1 | 0.6% | . | i
Fc1ccc(Cn2ccc(-c3cnc(-c4ccccc4)s3)n2)cc1 | 5.9% | . | i
O=C(NCCO)C(c1ccccc1)c1ccccc1 | -5.9% | -1.33 | i
O=C(Nc1nnc(COc2ccccc2)s1)C1CCN(S(=O)(=O)c2ccc(Cl)cc2)CC1 | 2.2% | . | i
COc1ccc(N(C)C2=NS(=O)(=O)c3ccccc32)cc1 | 1.6% | . | i
Cc1cc(NC(=O)CCCC(=O)NCc2cccs2)no1 | 0.8% | -0.19 | i
CC(C)CN(C(=O)COC(=O)C12CC3CC(CC(O)(C3)C1)C2)C1CCS(=O)(=O)C1 (stereo not given) | -1.9% | -0.59 | i
CS(=O)(=O)NCCSCc1ccccc1 | -0.5% | 1.6 | i
CCCCCCc1nc2ccccc2c(=O)n1NC(=O)c1c(O)c2c(n(CC(C)C)c1=O)CCCC2 | 2.7% | . | i
Cc1cccc(N(CC(=O)Nc2c(C)n(C)n(-c3ccccc3)c2=O)S(C)(=O)=O)c1 | 1.4% | 0.1 | i
CSC1=NCCN1C(=O)c1ccc(S(=O)(=O)N(C)C)cc1 | 5.8% | -1.56 | i
CC(C)CCNC(=O)c1ccc(C2SCC(=O)N2Cc2ccco2)cc1 (stereo not given) | -6.0% | . | i
COc1ccccc1Oc1ccc2c(c1)C(=O)N(c1cccc(O)c1)C2=O | -2.9% | 0.63 | i
Cc1ccc(C)c(NC2=NC3(CCCCC3)N=C(N)N2)c1 | 4.7% | -1.13&0.21 | i
N#CCCSc1nc(N2CCOCC2)c2c(c1C#N)CCCC2 | 0.5% | -0.3 | i
CN(Cc1nnc(SCC(=O)NCCc2ccccc2)n1C)S(=O)(=O)c1ccccc1 | -4.2% | 1.19 | i
COc1ccccc1N(CC(=O)NCc1cccnc1)S(C)(=O)=O | 1.6% | -0.39 | i
CCOC(=O)c1nnn(CC(=O)Nc2cccc(OC)c2)c1C(=O)OCC | 5.0% | 0.07 | i
Cc1ccc2c(c1)c1c3n2CCN=C3CCC1 | 5.4% | -1.33 | i
C#CCSC1=C(C#N)C(c2cccs2)C(C(=O)OCC)=C(C)N1 (stereo not given) | -9.2% | 0.17 | i
O=C(Nc1cnn(Cc2ccccc2)c1)c1nc2ncccn2n1 | -0.8% | 2.14 | i
Cc1nc2sc(C(c3cccc(F)c3)N3CC(C)OC(C)C3)c(O)n2n1 (stereo not given) | -6.6% | 1.28 | i
Cn1nc(CC(=O)NC2CCCCC2)c2ccccc2c1=O | -0.7% | . | i
O=C1CC(N2CCN(c3cccc(C(F)(F)F)c3)CC2)C(=O)N1c1ccccc1 (stereo not given) | 1.1% | 1.04 | i
O=C(C1CC1)N1CCc2cc(S(=O)(=O)NCC3COc4ccccc4O3)ccc21 (stereo not given) | -6.9% | 0.68 | i
Cc1sc(NC(=O)CN2CCN(c3ccccn3)CC2)c(C#N)c1C | 1.9% | 1.05 | i
Cc1ccc(S(=O)(=O)N2CCCC2CO)cc1 (stereo not given) | -5.4% | 0.01 | i
Cn1nnnc1SCC(=O)Nc1ccc(N2CCOCC2)cc1 | -4.8% | -0.71 | i
CCCCCCn1c(N2CCN(c3ccccc3)CC2)nc2c1c(=O)n(C)c(=O)n2C | -5.0% | 1.15 | i

Following part:
SMILES | Hsc70 | WNV NS2B-NS3 inh | MT1-MMP promoter
COc1ccc(N2CC(C(=O)Nc3nccs3)CC2=O)cc1 (stereo not given) | -2.7% | . | i
O=C(Cn1ncc2c(=O)oc3ccccc3c21)N1CCC(N2CCCCC2)CC1 | 2.2% | -0.02 | i
O=C(Nc1nc2ccccc2n1CCN1CCCCC1)C1CCCCC1 | 2.7% | . | i
CCc1ccc2nc(NC3=NCN(CCN4CCOCC4)CN3)nc(C)c2c1 | 0.2% | -0.63 | i
CCOC(=O)c1ccc(NC(=O)Cn2nnc3ccccc32)cc1 | 3.9% | -0.00659 | i
COc1ccc(-c2[nH]ncc2Oc2ccccc2OC)c(O)c1 | -1.1% | -0.71 | i
COc1ccc(-n2cnc3cc(NCc4ccco4)ccc32)cc1 | 0.6% | . | i
CCCCCOc1ccc(C(=O)NC(C(=O)O)C(C)C)cc1 (stereo not given) | -2.5% | 0.07 | i
Cc1cc(C(=O)CSc2n[nH]c(N)n2)c(C)n1C1CC1 | -0.3% | . | i
Cc1noc(C)c1S(=O)(=O)N(CC(=O)O)c1ccc2c(c1)OCO2 | 2.8% | -0.19 | i
CN(C)S(=O)(=O)c1cccc(C(=O)Nc2cccnc2)c1 | 0.8% | -0.8 | i
CSc1nc2[nH]c3c(c2c2nnnn12)CCCC3 | -9.8% | -0.89 | i
COc1ccc(NCc2nnc(SCC(=O)N3CCCc4ccccc43)n2C)cc1 | 2.0% | -0.48 | i
COc1ccc(/C=N/n2cncn2)cc1CSc1ccccn1 | -0.9% | 0.42 | i
CCOC(=O)CNC(=O)CSc1ncnc2c1nnn2-c1ccc(F)cc1 | 2.2% | 1.12 | i

Filtered by structure, the compounds so far containing a COOH group (four)
SMILES | Hsc70 | WNV NS2B-NS3 inh | MT1-MMP promoter
Cc1c(C(=O)O)cnc2cc(-c3ccc(Cl)cc3)nn12 | -1.9% | -0.72 | i
NC(Cc1ccc2nonc2c1)C(=O)O (stereo not given) | -4.8% | 0.51 | i
CCCCCOc1ccc(C(=O)NC(C(=O)O)C(C)C)cc1 (stereo not given) | -2.5% | 0.07 | i
Cc1noc(C)c1S(=O)(=O)N(CC(=O)O)c1ccc2c(c1)OCO2 | 2.8% | -0.19 | i

Additional structures follow.
SMILES | Hsc70 | WNV NS2B-NS3 inh | MT1-MMP promoter
CN(C)S(=O)(=O)N1CCc2ccccc2C1 | 3.3% | -0.03 | i
O=C(CCSCCC(=O)NCCN1CCOCC1)NCCN1CCOCC1 | -2.5% | -0.61 | i
CCOC(=O)c1[nH]c2ccc(Cl)cc2c1NC(=O)c1nonc1C | 4.4% | . | i
O=C(CSCCO)Nc1cccc(C(F)(F)F)c1 | -2.4% | 0.39 | i
COc1cccc(-c2nnc(N(C)C(=O)C3CCOC3)s2)c1 (stereo not given) | 4.0% | -0.31 | i
Cc1ccc(-c2nnn(CC(=O)Nc3ccc(S(=O)(=O)N4CCC(C)CC4)cc3)n2)cc1 | 1.2% | -0.55 | i
COc1ccc(COCC(O)CN2CCOCC2)cc1OC (stereo not given) | -1.0% | 0.51 | i
Cc1ccc2c(c1)N(CC(=O)N1CCN(c3nc4ccccc4s3)CC1)C(=O)C(C)O2 (stereo not given) | -1.6% | 2.14 | i
CC(C)NC(=O)c1ccc2c(=O)n(C3CCCC3)c(=S)[nH]c2c1 | 4.3% | -0.9 | i
CC(=O)c1cc2c(cc1NC(=O)CN1CCCCCC1)OCO2 | -2.7% | . | i
CCCOC(=O)Nc1ccc(C(N)=O)cc1 | -0.6% | -1.26 | i
CCOc1ccc(NC(=O)CN2CCN(CC(=O)Nc3ccc4c(c3)OCO4)CC2)cc1 | -0.5% | 1.33 | i
CCc1nc2cc(Cl)c(Cl)cc2[nH]1 | -0.3% | -0.48 | i
O=C(C1CCCN(S(=O)(=O)c2ccccc2)C1)N1CCCc2ccccc21 (stereo not given) | 9.3% | -0.33 | i
O=C1c2[nH]nc(-c3ccccc3O)c2C(c2ccccc2)N1Cc1ccco1 (stereo not given) | -5.5% | 1.15 | i

7 compounds picked at random from those above, as already listed:
SMILES | Hsc70 | WNV NS2B-NS3 inh | MT1-MMP promoter
COc1ccc(COCC(O)CN2CCOCC2)cc1OC (stereo not given) | -1.0% | 0.51 | i
COc1cccc(-c2nnc(N(C)C(=O)C3CCOC3)s2)c1 (stereo not given) | 4.0% | -0.31 | i
O=C1c2[nH]nc(-c3ccccc3O)c2C(c2ccccc2)N1Cc1ccco1 (stereo not given) | -5.5% | 1.15 | i
CCOc1ccc(NC(=O)CN2CCN(CC(=O)Nc3ccc4c(c3)OCO4)CC2)cc1 | -0.5% | 1.33 | i
CCCOC(=O)Nc1ccc(C(N)=O)cc1 | -0.6% | -1.26 | i
CCOC(=O)c1[nH]c2ccc(Cl)cc2c1NC(=O)c1nonc1C | 4.4% | . | i
O=C(C1CCCN(S(=O)(=O)c2ccccc2)C1)N1CCCc2ccccc21 (stereo not given) | 9.3% | -0.33 | i

Later entries.
SMILES | Hsc70 | WNV NS2B-NS3 inh | MT1-MMP promoter
CCOc1ccccc1N1CC(C(=O)N2CCc3ccccc3C2)CC1=O (stereo not given) | 2.6% | . | i
CC(C)(C)c1nnc2sc(SCC(=O)N3CCCc4ccccc43)nn2c1=O | 0.4% | 0.15 | i
COc1ccc2c(c1)c(=O)cc(-c1ccccc1)n2C | -4.6% | . | i
N#CCSc1nnc(-c2ccccc2O)n1CCc1ccccc1 | -1.6% | -0.96 | i
CC1(C)CC(=O)C2=C(C1)OC(c1cccs1)C(C#N)=C2N (stereo not given) | 2.9% | -1.08 | i
CCCn1c(C)cc(/C=C(\C#N)C(=O)OCC(=O)NC(=O)NCC)c1C | 1.7% | . | i
Cc1ccc2cc(CN(CC3CCCO3)C(=O)NC3CCCCC3)c(=O)[nH]c2c1C (stereo not given) | 2.2% | 1.67 | i
c1ccc2c(c1)C(=NC1CCCCC1)NC2=NC1CCCCC1 | -1.3% | . | i
COc1cccc(N2CCN(C(=O)c3cccnc3)CC2)c1 | 2.2% | 0.21 | i
Clc1ccc(Cl)c2sc(N3CCCC3)nc12 | 3.8% | -0.76 | i
CC1CCc2cc(F)ccc2N1C(=O)CN1C(=O)c2ccccc2C1=O (stereo not given) | 6.4% | 2.5 | i
Cc1cc(C)c2c(=O)n(-c3ccccc3)[nH]c2n1 | -1.8% | 0.9 | i
COC(=O)c1ccc2c(c1)NC(=O)C(N1CCCCC1)S2 (stereo not given) | -55.4% | 0.3 | i
CC(C)(C)c1cc(CNC2CS(=O)(=O)C[C@@H]2O)cc(C(C)(C)C)c1O (stereo not given in full) | 0.0% | -0.24 | i
CCCC(c1nnnn1C1CCCCC1)N1CCN(c2ncccn2)CC1 (stereo not given) | 2.4% | 1.57 | i
CCOC(=O)c1cc2ccc(OC)cc2oc1=O | -1.3% | . | i

These rows are one share of the data (hit frequency here may not be typical).
